Screens from PubChem BioAssay.
AID504770: growth inhibitors of E. coli YBA685 in a screen for V. cholerae RctB (chromosome II replication) inhibitors | AID 504770 | E. coli YBA685 rctB-dependent plasmid, OD600 growth, 3 h; hits give low values | z-score (concentration not given with the values) | 130,000 tested, 0.27% active;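 active = z-score under -2 on both plates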;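 also: wells of about 30 µL received 100 nL stock; score is relative to mean and SD of the test wells; the first replicate is given; strong numbers were not always called active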
Ba CapD inh: inhibitors of Bacillus anthracis CapD enzyme; purified CapD enzyme, fluorescence intensity read-out; hits give low values; some hits fall short of the stated cut; z-score (test concentration not listed); 140,000 tested, 0.23% active;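 active = z-score under -4 in either of two replicates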;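 also: stock transfer was 100 nL into about 40 µL; score is relative to mean and spread of the plate; one replicate is shown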
* marks the source's active call; other numbers are inactive results; · = no result given. The list is partial; count on the stated rates, not on these rows.

SMILES	AID504770	Ba CapD inh
C/C(Cn1cc[n+](C)c1)=N/O	0.6	0.795
Cc1noc(C)c1Cn1nc(C(=O)O)c2ccccc2c1=O	1.6	·
COC(=O)C1=C(C)NC(SCC(=O)C23CC4CC(CC(C4)C2)C3)=C(C#N)C1c1cccs1 (centres undefined)	0	1.72
O=C(CSc1ccccc1)Nc1ccc(F)cc1	-0.95	0.185
Cc1sc2ncn(CC(=O)NCC(=O)N3CCN(c4ccc(F)cc4)CC3)c(=O)c2c1C	·	-0.81
CCC(=O)N(c1nnc(SCCN2C(=O)c3ccccc3S2(=O)=O)s1)C1CC1	0	·
CCCN(CCC)C(=O)Cn1ncc2c(=O)oc3ccc(C)cc3c21	0.35	1.89
O=C(CN1C(=O)COc2ccccc21)N(Cc1nc2ccccc2c(=O)[nH]1)CC1CCCO1 (centres undefined)	-0.4	·
O=C(NCC1CC1)c1cc2ccccc2oc1=O	-0.4	16.7
CCOC(=O)C1=C(C)N=c2s/c(=C\c3ccc(O)c(Br)c3)c(=O)n2C1c1ccc(OC)c(OC)c1 (centres undefined)	·	-0.36
S=C(c1ccncc1)N1CCOCC1	0.3	·
COc1cccc2c1CCN(C)C2=O	-0.65	2.18
N#Cc1ccccc1NC(=O)CSC1=NC(=O)C(Cc2ccccc2)C(=O)N1 (centres undefined)	·	0.15
Fc1cccc(Cl)c1CSc1ccc(C(F)(F)F)cn1	·	0.115
COc1ccc(CN2C(=O)N(Cc3cc(=O)n4ccccc4n3)c3ccccc3S2(=O)=O)cc1	0	37.6
Nc1nc(SCCO)[nH]c(=O)c1NC(=O)c1ccccc1F	-0.6	·
Clc1ccc(C2=Nn3c(nnc3-c3ccccc3)SC2)c(Cl)c1	·	-1.29
O=C(O)C1C2C=CC(O2)C1C(=O)NCCCn1ccnc1 (centres undefined)	1.75	-0.275
O=C1CCCc2cc(S(=O)(=O)N3CCCc4ccccc43)ccc2N1	0.25	0.475
O=C(O)c1[nH]n(-c2ccccc2)c(=O)c1/C=C1\C=Nc2ccccc21	-0.1	-0.745
Cn1c2ccccc2c2cc(C#N)c3nc(=O)c4ccccc4n3c21	-0.4	·
COc1cc(/C=C2\C(=O)NC(=O)N(c3cccc(C)c3)C2=O)cc(OC)c1OC	·	0.87
O=C(NCC1COc2ccccc2O1)Nc1csc2ccccc12 (centres undefined)	-1.7	-1.29
COc1cc2c(cc1OC)C(=O)CC(C)(C)O2	-0.85	57.2
C=CCn1c(COc2ccc(CC)cc2)nnc1SCn1nnc2ccccc2c1=O	1	·
Nc1ccc2c(c1)C/C(=C\c1ccco1)C2=O	-1.4	-3.17
FC(F)(F)c1ccc(-c2csnn2)cc1	-0.85	-0.85
O=C(Cc1nc(-c2cnccn2)no1)N/N=C/c1ccccc1	-0.25	-0.54
N#C/C(=C\c1ccco1)C(N)=S	-1.2	·
COc1ccc(OC)c(NC(=O)CS)c1	-0.9	-0.555
Cc1cccn2cc(-c3ccc(S(=O)(=O)N4CCCCC4)cc3)nc12	·	68.9
CCOc1ccc2c(O)c(C3=Nc4ccccc4C3=O)sc2c1	0.65	·
COc1cc(/C=N/OCC(=O)NCC2CCCO2)ccc1OC(F)F (centres undefined)	-0.7	·
COc1ccc(CC(=O)NCc2ccccc2)cc1	-0.05	0.16
CC(=O)NCc1nc2ccccc2n1C(C)C	-0.95	0.06
Cc1ccc(SCC(=O)O)cc1	-2.05	-0.63
Fc1ccccc1-c1csc(-n2nccc2C(F)(F)F)n1	-0.7	·
CCOC(=O)c1c(CSc2ccccc2)oc2cc(CN(C)C)c(O)c(Cl)c12	·	0.21
CC(C)(C)OC(=O)NC(CC(N)=O)C(=O)Oc1ccc([N+](=O)[O-])cc1 (centres undefined)	·	-2.21
NC1=Nc2ccc(Cl)cc2C1(O)c1ccccc1 (centres undefined)	-0.6	0.33
COc1ccc(-n2c(/C=C\c3ccc(F)cc3)nc3cc(OC)c(OC)cc3c2=O)cc1	·	0.465
Cc1cc(C)nc(N2CCN(C(=O)c3cccs3)CC2)n1	·	-0.2
COC(=O)Nc1cn(Cc2ccccn2)c(=O)c2ccccc12	1.9	22.6
CN(NC(=O)c1ccc(Cl)cc1Cl)c1c(C#N)c(C(F)(F)F)nn1C	·	0.02
CSc1cccc(NC(=O)N2CCN3CCCCC3C2)c1 (centres undefined)	0.3	0.015
CC(O)CNc1ncnc2sccc12 (centres undefined)	-1	·
COC(=O)c1cn(NC(=O)c2cccc(OC)c2)c(=O)c2ccccc12	·	0.39
CC1=CC(C)(C)N(CN2C(=O)c3ccccc3C2=O)c2cc(C)ccc21	-0.3	0.16
CC1CCCC(C)N1/N=C/c1ccccc1F (centres undefined)	0.9	·
Cc1ccc(-c2nc(Nc3nc(C)cc(C)n3)n[nH]2)cc1	-0.6	-0.025
O=C(O)c1ccc2c(c1)OCCO2	·	-0.505
Cc1onc(-c2ccccc2)c1C(=O)NC1CCCC1	-0.4	-0.505
CCSC1=N/C(=C/c2ccsc2)C(=O)N1c1ccccc1	0.9	1.42
COc1cccc(C(=O)Nc2nnc(-c3ccc(Br)cc3)s2)c1	2.2	0.37
COc1ccc(S(=O)(=O)N(C)c2ccc(C(N)=O)cc2)cc1OC	-0.85	0.18
COc1ccc(C2Oc3c(OC)cccc3C3CC(c4ccc(C)o4)=NN32)cc1 (centres undefined)	·	-0.61
O/N=C/c1cn(CC(O)COc2ccc(Cl)cc2)c2ccccc12 (centres undefined)	-0.55	·
Cc1ccc(C)c(NC(=O)c2ccccc2NC(=O)C2CCCO2)c1 (centres undefined)	-1.1	0.405
CN(C)Cc1ccc(C#N)cc1	0.8	·
Cc1ccc2c(CC(=O)OCc3ncc(-c4ccccc4)o3)coc2c1	-0.6	·
(further entries)
SMILES	AID504770	Ba CapD inh
CCOc1ccc2nc(NC(=O)c3ccc(C#N)cc3)sc2c1	-0.6	-0.115
O=C(NCSCc1cccc(C(F)(F)F)c1)Nc1ccc(F)c(Cl)c1	0.2	1.1
CN(C)c1cccc(C(=O)OCC(=O)C(C)(C)C)c1	0.35	·
CS(=O)(=O)Cc1cc(NCc2ccccc2)nc(-c2cccnc2)n1	·	0.69
Cn1ncc(I)c1C(=O)N1CCc2ccccc2C1	-0.3	·
CN1CCC(N(C)C(=O)c2ccc(NS(=O)(=O)c3cccs3)cc2)CC1	0.5	·
COC(=O)c1scc(C)c1NN1C(=O)C=C(C)C1=O	-0.25	-0.345
Cc1ccc(/C=N/Nc2nc3ccccc3nc2Cc2ccccc2)cc1	·	-0.505
CN(Cc1ccccc1)Cc1c[nH]c2ccccc12	-1.05	-0.23
O=c1[nH]c2ccccc2c(=O)n1NC(=S)NC1CC2CCC1C2 (centres undefined)	-0.3	·
COC(CN(C)S(=O)(=O)c1cccc2cccnc12)OC	1.15	-1.19
CCCNc1ncnc2c1c(-c1ccccc1)cn2-c1ccc(OC)cc1	0	0.705
COc1cc2cc(Oc3ccc4ccc(=O)oc4c3)c(=O)oc2cc1O	1.5	6.08
O=C(c1ccc([N+](=O)[O-])cc1)N(c1cc(C(F)(F)F)cc(C(F)(F)F)c1)c1nc2ccccc2s1	·	0.37
O=C(O)CC1(CC(=O)Nc2nccs2)CCCC1	-0.65	·
CCOC(=O)C1=C(N)Oc2ccc3ccccc3c2C1c1ccccc1OC (centres undefined)	·	-0.115
Cc1c(Br)c([N+](=O)[O-])nn1CC(=O)Nc1ccc(Oc2ccc(Cl)cc2)cc1	·	-0.27
Nc1nnc(-c2ccccc2)o1	-0.45	0.385
O=C(Nc1csc2ccccc12)N1CCN(C(c2ccccc2)c2ccccc2)CC1	1.45	0.985
COc1ccccc1/C=C1\C(=O)NC(=O)N(C2CCCC2)C1=O	-1.45	·
CC(C)(C)c1ccc(-c2nnc(N)o2)cc1	0.7	0.9
CCOC(=O)NC(c1ccccc1F)C1CCCC(C(=O)OCC)C1=O (centres undefined)	·	-0.215
CCCCCOc1ccc2c(c1)C(=NO)c1cc(OCCCCC)ccc1-2	·	-0.385
O=C(CCc1ccccc1)N1N=C(c2cccc([N+](=O)[O-])c2)CC1(O)C(F)(F)F (centres undefined)	·	-0.5
N#CC1=C(N)Oc2n[nH]c(-c3ccc(Cl)cc3)c2C12C(=O)N(CC(=O)O)c1ccccc12 (centres undefined)	·	-0.12
N=Cc1c(O)n(-c2ccccc2)c(=S)n(-c2ccccc2)c1=O	·	-0.34
O=C1Nc2ccccc2S/C1=C\C(=O)N1CCCC1	-1	-0.155
CCC(C)NC(=O)C1CCN(S(=O)(=O)c2ccc(-n3cnnn3)cc2)CC1 (centres undefined)	0.25	·
CN(C)c1nccc(N(Cc2ccccc2)Cc2ccccc2)c1C#N	0.45	17.8
C=CCN1C(=O)/C(=C/c2cc(C)n(-c3ccccn3)c2C)C(=O)NC1=S	0.35	0.215
CC1CCC2(CC1)C(C#N)=C(SCC(=O)Nc1ccc(Br)cc1)NC(=O)C2C#N (centres undefined)	·	-1.27
CC1(C2CC2)NC(=O)NC1=O (centres undefined)	1.2	-0.315
CCCCn1c(SCC(=O)NCc2ccc(C)cc2)nc2ccc(N3CCOCC3)cc2c1=O	1	-0.345
O=C(Nc1cccnc1Sc1ccc(Cl)cc1)C(c1ccccc1)C1CCCC1 (centres undefined)	·	0.465
CCOc1cc(/C=C2\N=C(c3ccccc3Cl)OC2=O)cc(Br)c1OC(C)=O	·	0.525
Fc1ccc(-c2ccnc3nc(N4CCN(c5ccccc5)CC4)nn23)cc1	·	0.25
CCC(C)c1ccc(O)c(CN2CCCCC2)c1 (centres undefined)	·	-0.53
COc1ccc2c(ccn3cc4c(c(=O)n(C)c(=O)n4C)c23)c1	-0.15	0.445
CC(C)(Oc1ccc(Br)cc1)C(=O)O	-0.85	0.265
Cc1nc2ccccc2nc1N=C(N)NC(=O)c1ccccc1	0.6	28.4
CC(O)CCc1nc2ccc(C(=O)O)cc2[nH]1 (centres undefined)	-0.45	1.99
Cc1noc2ncn(CC(=O)NCCc3ccccc3)c(=O)c12	-0.75	-0.35
CC(=O)Nc1ccc(NC(=O)CNC2CCC(C)CC2)cc1 (centres undefined)	0.95	·
Cc1[nH]c(=S)n(C2CCCCC2)c1C	-0.35	·
OC1CCN(C(=S)NC2CCCC2)CC1	1.75	-0.16
CC(=O)O[C@H]1C(=O)[C@@]2(C)[C@H](O)C[C@@H]3OC[C@]3(OC(C)=O)[C@@H]2[C@@H](OC(=O)c2ccccc2)[C@@]2(O)C[C@@H](OC(=O)[C@@H](O)[C@H](NC(=O)c3ccccc3)c3ccccc3)C(C)=C1C2(C)C	·	-0.3
O=C(O)c1c(C(F)(F)F)cc[nH]c1=O	-0.2	16.7
Oc1ccccc1C1=Nc2ccccc2N=C(c2ccccc2)C1	·	-0.795
COC(=O)c1c(C)oc(C)c1S(=O)(=O)N1CCCCC1	0.35	0.225
C1=C(c2ccccc2)Nc2ncnn2C1c1ccco1 (centres undefined)	-0.4	·
COc1ccc(N2CCN(C(=O)OCCSCc3ccc4nonc4c3)CC2)c(OC)c1	·	-0.325
O=C(O)c1cc2c([nH]c1=O)CCCC2	-1	13.3
Cc1[nH]n(-c2ccccc2)c(=O)c1C(c1c(Cl)cccc1Cl)c1c(C)[nH]n(-c2ccccc2)c1=O	·	5.84
CC(C)(Oc1ccc(Cl)cc1)C(=O)NCCn1ccc2ccccc21	0.6	-0.29
O=C(Oc1cc(Cl)cc(Cl)c1)c1ccccc1F	-0.75	-0.125
Cn1c(=O)c(=O)n(C)c2cc(S(=O)(=O)CCC(=O)N3CCCCC3)ccc21	-0.55	1.6
COc1cccc(-c2noc(-c3ccccc3C)n2)c1	-0.65	0.175
CCOC(=O)CSc1ncc(OC)c(Sc2ccc(Cl)cc2)n1	·	0.045
COC(=O)C1=C(O)c2ccccc2S(=O)(=O)N1C	-0.5	-2.27
Cc1c(C(=O)NCCN(C)C)sc2nc(-c3ccc(F)cc3)cn12	-0.45	0.005
Other structures
SMILES	AID504770	Ba CapD inh
O=C1c2ccccc2C(=O)N1CC(=O)n1nc(-c2cccnc2)nc1NCc1cccs1	-0.3	-0.19
O=S(=O)([N-]c1nc2ccccc2nc1-[n+]1ccccc1)c1ccccc1	-0.95	-1.52
Oc1ccc(C=NCC2COc3ccccc3O2)cc1 (centres undefined)	-0.45	-1.46
O=C(Nc1ccc(S(=O)(=O)Nc2nccs2)cc1)C1CCCO1 (centres undefined)	-0.3	0.24
Cn1c(=O)c2cn(C(C)(C)C)cc2n(C)c1=O	0.75	0.185

Some of the entries so far, with bars between the fields:
compound | AID504770 | Ba CapD inh
O=C(O)c1c(C(F)(F)F)cc[nH]c1=O | -0.2 | 16.7
Oc1ccccc1C1=Nc2ccccc2N=C(c2ccccc2)C1 | · | -0.795
COC(=O)c1c(C)oc(C)c1S(=O)(=O)N1CCCCC1 | 0.35 | 0.225
C1=C(c2ccccc2)Nc2ncnn2C1c1ccco1 (centres undefined) | -0.4 | ·
COc1ccc(N2CCN(C(=O)OCCSCc3ccc4nonc4c3)CC2)c(OC)c1 | · | -0.325
O=C(O)c1cc2c([nH]c1=O)CCCC2 | -1 | 13.3
Cc1[nH]n(-c2ccccc2)c(=O)c1C(c1c(Cl)cccc1Cl)c1c(C)[nH]n(-c2ccccc2)c1=O | · | 5.84
CC(C)(Oc1ccc(Cl)cc1)C(=O)NCCn1ccc2ccccc21 | 0.6 | -0.29
O=C(Oc1cc(Cl)cc(Cl)c1)c1ccccc1F | -0.75 | -0.125
Cn1c(=O)c(=O)n(C)c2cc(S(=O)(=O)CCC(=O)N3CCCCC3)ccc21 | -0.55 | 1.6
COc1cccc(-c2noc(-c3ccccc3C)n2)c1 | -0.65 | 0.175
CCOC(=O)CSc1ncc(OC)c(Sc2ccc(Cl)cc2)n1 | · | 0.045
COC(=O)C1=C(O)c2ccccc2S(=O)(=O)N1C | -0.5 | -2.27
Cc1c(C(=O)NCCN(C)C)sc2nc(-c3ccc(F)cc3)cn12 | -0.45 | 0.005
O=C1c2ccccc2C(=O)N1CC(=O)n1nc(-c2cccnc2)nc1NCc1cccs1 | -0.3 | -0.19
O=S(=O)([N-]c1nc2ccccc2nc1-[n+]1ccccc1)c1ccccc1 | -0.95 | -1.52
